Source: PubChem BioAssay
2A StopGo: lowers the luciferase signal of an FMDV 2A StopGo reporter. human cells with a luciferase reporter of 2A StopGo recoding; control for the full effect not named in the record. Potency, µM (doses to about 57.9 µM), for inactives: at the top dose signal change, negative = less light. AID 1159524. actives 1.2% (n = 410,000); active = well fitted falling curve with a large enough effect; inconclusive = small, poorly fitted or top-dose-only effect; inactive = no such curve, though single readings can be large or run the other way; tested in HEK293T cells; also: % is scaled to controls: 0 for no effect and ±100 for the full control effect; nearly all actives have a fitted effect of over 45% in size; luciferase light after 4 h
RE007 growth inh: less growth of the S. pombe RE007 Vpr strain; actives 0.21% (n = 360,000); S. pombe RE007 Vpr strain, BacTiter-Glo ATP luminescence, 24 h; control for the full effect not named in the record; AID 651644; Potency, µM (highest dose often 92.2 µM), for inactives: at the highest dose activity change, negative = less growth; active = well fitted falling curve with a large enough effect; inconclusive = small, poorly fitted or top-dose-only effect; inactive = no such curve, though single readings can be large or run the other way;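 also: % is scaled to controls: 0 for no effect and ±100 for the full control effect; nearly all actives have a fitted effect of over 50% in size; the assay follows cell death caused by Vpr and the record does not say whether a fall means rescue or toxicity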
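Fission yeast strain RE007, carrying one chromosomally integrated HIV-1 vpr copy, was seeded at OD 0.01 in PMG+AL medium with 23 nL pinned compound. After 24 h at 30 °C and 99% humidity, viability was read by BacTiter-Glo luminescence.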
SARS PLP yeast: inhibitors of SARS-CoV papain-like protease in yeast | actives 0.19% (n = 330,000) | Potency, µM (doses to about 32.9 µM), for inactives: at the top dose activity, positive = growth rescue | S. cerevisiae expressing SARS-CoV PLpro, growth rescue; control for the full effect not named in the record; active means well fitted rising curve with a large enough effect; inconclusive means small, poorly fitted or top-dose-only effect; inactive means no such curve, though single readings can be large or run the other way; also: 0% is about no effect; nearly all actives have a fitted effect of over 55% in size; growth read by luminescence after 48 h
Numbers without * were called inactive; ? = inconclusive; & = joins results of further samples; [ ] = remark or other dose. Potency is read from the fitted curve at half-maximal effect. Not all compounds are listed; rates above refer to the full screens.

SMILES | 2A StopGo | RE007 growth inh | SARS PLP yeast
CN(c1ccc(OCC(=O)OCC(=O)Nc2ccc(OC(F)F)cc2)cc1)S(=O)(=O)c1cccs1 | 12% | -8% | 2%
COc1ccc(CNC(=O)CN2C(=O)NC3(CCCCCC3)C2=O)cc1OC | -14% | -4% | 1%
O=C1c2cc(Br)ccc2OC2C=CC=CC12 (stereo not drawn) | 46%[activator] | -15% | -6%
N#Cc1ccc(S(=O)(=O)N2CCN(Cc3cccs3)CC2)cc1 | -11% | 31% | -5%
CC[C@]12c3[nH]c4ccccc4c3CCN1C(=O)C(CC(=O)NCCc1ccccn1)C[C@@H]2C(=O)N1CCN(C(=O)C2CC2)CC1 (stereo partly drawn) | 1% | 10% | 5%
C=CC[C@@H](CC(=O)NCCO)C(=O)NC[C@@H](OC(=O)[C@H](CC=C)CC(=O)OC(C)(C)C)c1ccccc1 | 5% | 2% | -14%
O=C(O)c1[nH]c2ccccc2c1C=NCc1ccccc1Cl | -3% | 0% | 0%
CC1CCC2(CC1)NC(=O)N(CC(=O)Nc1ccc(F)cc1)C2=O (stereo not drawn) | -25% | 14% | 0%
Nc1ccc(NS(=O)(=O)c2ccccc2)cc1 | -15% | -1% | -3%
CCOc1ccc(C(=O)OCC(=O)NCC2CCCO2)cc1 (stereo not drawn) | 11% | -13% | -4%
Cc1ccc(F)cc1NC(=O)CN1C(=O)NC(C)(c2ccc3c(c2)OCCO3)C1=O (stereo not drawn) | -13% | 11% | 1%
COc1ccc(C)cc1NC(=O)COC(=O)c1ccc2ccccc2n1 | -10% | 3% | 10%
CCOC(=O)C1CCCN(C(=O)CSc2nnnn2C)C1 (stereo not drawn) | -6% | -5% | 3%
O=C(C[C@H]1C/C=C\CC[C@H](Cc2ccc(F)cc2)C(=O)OC[C@H]2CCCN2C1=O)N[C@@H](CO)Cc1ccccc1 | -20% | -1% | -1%
O=C1N[C@H](Cc2ccccc2)COC(=O)[C@H](Cc2ccc(F)cc2)CC/C=C/C[C@H]1CC(=O)N(CCO)Cc1ccccc1 | -18% | 6% | -9%
COc1cccc(/C=C/C(=O)OCC(=O)NC(=O)NC2CCCC2)c1 | 2% | -5% | -1%
C[C@@H](NC(=O)c1nc[nH]c1C(=O)NCCCCCNC(=O)OC(C)(C)C)c1ccccc1 | -9% | 6% | -5%
C#CCOCCOCCOCCNc1nc(N2CCN(C(=O)C([C@@H](C)O)n3cc([C@@H](N)CCCCN)nn3)CC2)nc(N2CCN(C(=O)C([C@@H](C)O)n3cc([C@@H](N)CCCCN)nn3)CC2)n1 (stereo partly drawn) | -6% | 4% | ?
CC1(C)CC2CC(C)(CN2S(=O)(=O)c2cccc(C(=O)O)c2)C1 (stereo not drawn) | 4% | -5% | -3%
COc1ccc(C2=NN(Cc3c(F)cccc3Cl)C(=O)CC2)cc1 | -29% | -16% | -9%
C[C@H](CO)N1C[C@H](C)[C@@H](CN(C)C(=O)Nc2ccc(C(F)(F)F)cc2)Oc2c(NC(=O)c3ccncc3)cccc2C1=O | 9% | 7% | -3%
CCOC(=O)[C@H]1[C@H]2COc3cc(OC)ccc3[C@@H]2N2C(=O)c3ccc(C)cc3NC(=O)[C@@]12C | -15% | 6% | 0%
Cc1ccc(S(=O)(=O)N(C)c2ccc(C(=O)NCC(c3ccco3)N(C)C)cc2)cc1 (stereo not drawn) | -15% | 12% | -2%
CC[C@]12c3[nH]c4cc(-c5ccco5)ccc4c3CCN1C(=O)[C@@H](CC(=O)NCc1ccco1)C[C@@H]2C(=O)N1CCN(C(=O)c2ccco2)CC1 | -12% | -9% | -1%
COc1ccc2oc(C(=O)NCc3ccccc3CN3CCCC3)c(C)c2c1 | -20% | -5% | 1%
C[C@@H](NC(=O)c1nc[nH]c1C(=O)OCc1ccccc1)c1ccccc1 | ? | -10% | 11%
Cc1cccc(Nc2ccc(NCc3ccccc3)nn2)c1 | 59%[activator] | 0% | 5%
Cn1cc(S(=O)(=O)N2CCCC2)cc1C(=O)O | -7% | -8% | -1%
Cc1ccccc1-c1nc2c(s1)CCc1onc(-c3cccc([N+](=O)[O-])c3)c1-2 | -2% | 7% | 2%
CN(C(=O)CSc1nnc(-c2cccnc2)o1)C1CCCCC1 | 8% | -22% | -5%
C=CCNC(=O)NC(=O)COC(=O)CNS(=O)(=O)c1ccc(F)c(F)c1F | -15% | 12% | -1%
CCC(CO)Oc1cc(NCc2ccncc2)c2ncn(C(C)C)c2c1 (stereo not drawn) | 0% | -15% | -6%
CCn1c(=NC(=O)c2ccc(S(=O)(=O)N(C)C)cc2)sc2cccc(OC)c21 | 11% | 13% | -2%
CN(CC(=O)N1CCN(Cc2ccccc2)CC1)S(=O)(=O)c1cccc2nsnc12 | -15% | 0% | -5%
CN(C(=O)COc1cccc(C#N)c1)C1CCS(=O)(=O)C1 (stereo not drawn) | -16% | 5% | 3%
CCCCNC(C)Cc1ccccc1 (stereo not drawn) | -4% | -13% | -2%
COc1ccccc1-c1oc2ccccc2c1C#CCO | -9% | 9% | -5%
Cn1cnc(C(=O)NC2CCN(C(=O)OC(C)(C)C)CC2)c1C(=O)NC1CCN(C(=O)OC(C)(C)C)CC1 | -17% | 5% | -3%
Cc1cccc(NC(=O)CN2CCN(C(=O)COc3cccc(Br)c3)CC2)c1C | -25% | 2% | 1%
O=C(Nc1ccc(S(=O)(=O)N2CCCC2)cc1)c1cncc(Br)c1 | ? | -21% | 4%
Oc1ccc2c3c1OC1[C@H](O)CC[C@@]4(O)[C@@H](C2)N(CC2CC2)CC[C@]314 (stereo partly drawn) | -26%&-21% | 13%&-14% | -5%&-3%
C[C@@H]1CN([C@@H](C)CO)C(=O)c2cccc(NS(C)(=O)=O)c2O[C@H]1CN(C)C(=O)Nc1ccc(F)cc1 | -19% | 2% | 2%
CCCCCCC[C@@H](C/C=C/CCC(=O)N(C)C/C(=C/Cl)C/C(=C\C(=O)N1C[C@H](O)CC1=O)OC)OC | 32µM* | -3% | -1%
O=C(OCCc1ccccc1)c1cc(O)c(O)c(O)c1 | 9% | -6% | -10%
Cc1c(C(=O)NNC(=O)c2csc(N3CCOCC3)n2)cccc1[N+](=O)[O-] | -6% | 5% | 0%
COc1ccc(-c2sc3ccccc3c2C#Cc2cncn2C)cc1 | -13% | -22% | -4%
CC(C)(C)OC(=O)N1O[C@H]2C[C@@H]1[C@@H]1[C@@H]2N=NN1C12CC3CC(CC(C3)C1)C2 | -23% | -9% | 2%
CCOc1ccc(C(=O)N/N=C/c2cc([N+](=O)[O-])cs2)cc1 | 17% | 3% | 2%
Cc1nonc1OCCNCCNc1ccccc1[N+](=O)[O-] | -3% | -15% | -5%
CCOC(=O)[C@H]1[C@H]2COc3ccc(C)cc3[C@@H]2N2C(=O)c3ccccc3NC(=O)[C@@]12C | -19% | 1% | 1%
O=C(COC(=O)C1CC1)Nc1ccc(Cl)cc1Cl | 32%[activator] | -4% | -5%
CC(C)CC(=O)Nc1ccc(C(=O)COC(=O)Cc2n[nH]c(=O)c3ccccc23)cc1 | -17% | -2% | -4%
COc1ccc(-c2csc(NC(=S)NC(=O)c3ccco3)n2)cc1 | 1% | 3% | 1%
CC(=O)Nc1sc(C)c(C)c1C(=O)OCC(=O)Nc1ccccc1 | 9% | 0% | -9%
O=C(COC(=O)c1nc(Cl)ccc1Cl)NCc1ccc(Cl)cc1 | -6% | 0% | -6%
CCOC(=O)C1CCCN(C(=O)c2ccc(S(=O)(=O)Nc3ccccc3OC)cc2)C1 (stereo not drawn) | ? | -22% | 1%
O=C(OCC(=O)c1ccc[nH]1)c1ccc(Br)cc1 | 23% | -1% | -4%
CN(C)CCNC(C(=O)Nc1cccc(S(=O)(=O)N2CCOCC2)c1)c1ccccc1 (stereo not drawn) | -1% | -10% | 6%
COc1ccc([C@@H]2[C@@H]3C(=O)N(C(C)(C)C)C(=O)[C@@H]3[C@]3(Cc4ccc(Cl)cc4)C(=O)N(c4cccc(F)c4)C(=O)N23)cc1 | -24% | -11% | 7%
C=CCNC(=O)c1cccc2c1C(=O)c1ccc(N3CCCC3)cc1S2(=O)=O | -8% | 23% | 5%

Three compounds already listed, ordered by length of the SMILES, ascending:
SMILES | 2A StopGo | RE007 growth inh | SARS PLP yeast
O=C1c2cc(Br)ccc2OC2C=CC=CC12 (stereo not drawn) | 46%[activator] | -15% | -6%
C[C@@H]1CN([C@@H](C)CO)C(=O)c2cccc(NS(C)(=O)=O)c2O[C@H]1CN(C)C(=O)Nc1ccc(F)cc1 | -19% | 2% | 2%
COc1ccc([C@@H]2[C@@H]3C(=O)N(C(C)(C)C)C(=O)[C@@H]3[C@]3(Cc4ccc(Cl)cc4)C(=O)N(c4cccc(F)c4)C(=O)N23)cc1 | -24% | -11% | 7%

Continuation.
SMILES | 2A StopGo | RE007 growth inh | SARS PLP yeast
C[C@@H]1CN([C@H](C)CO)C(=O)Cc2cc(NC(=O)Nc3ccccc3)ccc2O[C@@H]1CN(C)C(=O)Nc1ccc2c(c1)OCO2 | 6% | 21% | 3%
O=C(CC1OC(=O)c2ccccc21)Nc1cc(Cl)ccc1N1CCOCC1 (stereo not drawn) | 0% | 4% | -1%
CC(C)NC(=O)NC(=O)COC(=O)c1ccc([N+](=O)[O-])cc1Cl | -3% | 2% | 0%
O=C(C[C@@H]1C/C=C\C[C@H](NC(=O)OCC2c3ccccc3-c3ccccc32)C(=O)OC[C@H]2CCCN2C1=O)N[C@H](CO)Cc1ccccc1 | ? | -2% | -6%
CCCCCCC1(C)NC(=O)N(C(C)C(=O)Nc2ccc(N3CCOCC3)cc2)C1=O (stereo not drawn) | -10% | -6% | 6%
Cc1ccc(NS(=O)(=O)c2cc(C(=O)N(C)C3CCN(C)CC3)ccc2Cl)cc1Cl | 38%[activator] | 0% | 5%
CC(=O)N1CCN(C(=O)c2ccc(-c3ccccc3Cl)o2)CC1 | 33%[activator] | -10% | -43%[6.58 µM]
COCCN(CCOC)C(=O)CSc1ccc(S(=O)(=O)N2CCN(C)CC2)cn1 | -8% | -3% | 5%
CC[C@H](C)[C@@H](C(=O)NCCCCCCCCCCC(=O)N1CCNCC1)n1cc(CCCCCN)nn1 | -13% | 4% | 1%
CCOC(=O)[C@@H]1[C@H]2COc3ccccc3[C@@H]2N2C(=O)N(c3ccc(C(F)(F)F)cc3)C(=O)[C@@]12C | 8% | -3% | 4%
CN(CC(=O)Nc1cccc(F)c1)C(=O)CCN1C(=O)C2CC=CCC2C1=O (stereo not drawn) | -20% | 1% | -1%
COc1ccccc1C(=O)N=Nc1c(O)[nH]c2ccc([N+](=O)[O-])cc12 | -7% | 25% | -1%
Cn1nc(C(=O)Nc2cccc(S(=O)(=O)N3CCOCC3)c2)c2ccccc2c1=O | -18% | -1% | -2%
O=C(COC(=O)COc1cccc(C(F)(F)F)c1)Nc1ccc(N2CCOCC2)cc1 | 12% | 4% | -2%
CCOC(=O)c1ccc(S(=O)(=O)Nc2cc(S(=O)(=O)N3CCOCC3)ccc2O)cc1 | -22% | -13% | 4%
CCCOc1ccc(NC(=O)CC2C(=O)Nc3ccccc3N2CC(=O)N2CCCC2)cc1 (stereo not drawn) | -11% | 0% | -1%
O=C(CN1C(=O)C2CCCCC2C1=O)Nc1cc([N+](=O)[O-])ccc1F (stereo not drawn) | -18% | 9% | -2%
CCOC(=O)[C@H]1[C@H]2COc3ccc(C)cc3[C@@H]2N2C(=O)c3cc(F)c(F)cc3NC(=O)[C@@]12C | -22% | 2% | 0%
O=C1COc2ccc(C(=O)COC(=O)CNS(=O)(=O)c3cccc(F)c3)cc2N1 | -14% | -15% | -1%
CN(CC(=O)Nc1cc(Cl)ccc1C#N)C1CCS(=O)(=O)C1 (stereo not drawn) | -8% | 1% | 4%

Of the compounds above, 3 have an aryl thioether with sulfur outside any ring:
SMILES | 2A StopGo | RE007 growth inh | SARS PLP yeast
CCOC(=O)C1CCCN(C(=O)CSc2nnnn2C)C1 (stereo not drawn) | -6% | -5% | 3%
CN(C(=O)CSc1nnc(-c2cccnc2)o1)C1CCCCC1 | 8% | -22% | -5%
COCCN(CCOC)C(=O)CSc1ccc(S(=O)(=O)N2CCN(C)CC2)cn1 | -8% | -3% | 5%

Continued:
SMILES | 2A StopGo | RE007 growth inh | SARS PLP yeast
COCCN(C(=O)C1CC(=O)N(Cc2ccc(C)cc2)C1)c1c(N)n(CC(C)C)c(=O)[nH]c1=O (stereo not drawn) | 4% | 2% | -10%
CC(=O)Nc1ccc(S(=O)(=O)N(C)CC(=O)NNC(=O)c2cccs2)cc1 | 7% | 20% | -4%
CCOC(=O)c1sc2nc(C)nc(NCCc3ccccn3)c2c1C | ? | -29% | -6%
C=CC[C@@H](CC(=O)N(CCO)Cc1ccccc1)C(=O)NCCOC(=O)[C@H](CC=C)CC(=O)OC(C)(C)C | -1% | 14% | -23%
COC(=O)C1=C(c2ccc(OC(F)(F)F)cc2)C[C@@H]2CC[C@H]1N2C(=O)NC1Cc2ccccc2C1 | -30% | 4% | -9%
